Ecoli rRNA inh = reduced GFP signal of wild-type E. coli, primary screen, bacterial rRNA inhibitor project, GFP/RFP fluorescence, OD600, single point; 350,000 tested, 1.6% active; E. coli WT GFP vs humanized-ribosome RFP mutants, 24 h; stronger effect = lower value; DMSO median 0, no signal -100; GFP signal change (wild-type ribosome), % (concentration not given with the values);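 active = significant combined selectivity score with lowered wild-type GFP, culture density cut under 30%, mutant RFP and density less affected; inactive = any of these conditions unmet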; note: one replicate is shown; some compounds called inactive have numbers as strong as hits
FGF22 binding = binders of human FGF22 protein, primary screen, FGF22 synaptogenesis inhibitor project, biophysical, thermal shift, single point. recombinant FGF22 thermal shift, SYPRO orange fluorescence; percent of sucrose octasulfate shift, DMSO zero. calls only at 9.99 µM. 340,000 tested, 1.5% active. AID 651658, 2012;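 active = melting point raised past a set limit in the mean and every replicate; inconclusive = no clear call; three in four hits are not shown here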
Target sequence (Q9HCT0 whole entry, looked up): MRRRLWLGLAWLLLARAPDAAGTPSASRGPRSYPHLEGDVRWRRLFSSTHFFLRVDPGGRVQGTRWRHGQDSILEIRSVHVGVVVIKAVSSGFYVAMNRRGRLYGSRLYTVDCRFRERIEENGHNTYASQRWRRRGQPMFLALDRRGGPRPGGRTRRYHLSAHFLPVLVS
AF4-AF9 inh = inhibitors of AF4 peptide binding to AF9, primary screen, biochemical, AlphaScreen, biotin-AF4 peptide, FLAG-AF9, single point; 350,000 tested, 0.47% active; Protein AF-9 (Homo sapiens), P42568; inhibition, % at 10 µM; AID 651704, 2012;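 active = every replicate reaching a set inhibition limit, whatever the replicate mean, cut at about 25% in these data; inconclusive = mean inhibition reaches that limit but some replicates miss it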;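 note: 0% = plate neutral control median and 100% = total signal loss; the record names both 10 and 1 µM as test concentration; the first replicate is given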
Target sequence (P42568 whole entry, looked up): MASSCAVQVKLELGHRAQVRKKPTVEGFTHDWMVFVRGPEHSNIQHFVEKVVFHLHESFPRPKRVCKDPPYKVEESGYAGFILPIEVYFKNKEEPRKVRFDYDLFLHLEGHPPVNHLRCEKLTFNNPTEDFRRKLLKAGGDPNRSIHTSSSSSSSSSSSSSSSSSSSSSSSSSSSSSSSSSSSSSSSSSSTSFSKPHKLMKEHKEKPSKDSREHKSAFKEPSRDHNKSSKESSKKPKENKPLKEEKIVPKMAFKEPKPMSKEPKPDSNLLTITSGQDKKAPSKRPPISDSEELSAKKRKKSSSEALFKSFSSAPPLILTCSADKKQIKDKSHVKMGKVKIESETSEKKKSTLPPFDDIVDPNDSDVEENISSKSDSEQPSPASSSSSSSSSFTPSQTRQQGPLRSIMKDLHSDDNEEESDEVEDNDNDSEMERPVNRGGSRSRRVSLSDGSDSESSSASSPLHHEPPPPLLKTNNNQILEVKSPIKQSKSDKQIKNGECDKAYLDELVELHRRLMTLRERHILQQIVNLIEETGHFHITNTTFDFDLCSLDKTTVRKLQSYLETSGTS
T cruzi inh = inhibitors of intracellular T. cruzi growth, primary screen, luminescence, NIH3T3 host cells. T. cruzi beta-gal in NIH3T3, 90 h. inhibition, % (no concentration beside the values). 300,000 tested, 1.4% active. AID 1885, 2009;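 active = mean inhibition across valid replicates above about 55%, limit read from the data; inconclusive = mean below that limit but half or more replicates reach it; inactive = mean below it, under half of replicates reach it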;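 note: signal also drops with host cell toxicity which is not excluded here; 0% = plate median of DMSO wells and 100% = zero luminescence signal; higher percent means less beta-gal luminescence so fewer parasites; stock transfer was 50 nL into about 50 µL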
Bfl-1 A1 inh = caspase 3/7 activation in MEF A1-2A-BIM cells, primary screen, A1 inhibitor project, cell-based, luminescence, HTS; Caspase-Glo 3/7 luminescence, 3 h; percent of clofoctol response, vehicle zero; caspase activation, % (test concentration not listed); 330,000 tested, 0.066% active; AID 2462, 2010;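 active = over half of replicate activation scores above 10%, or exactly half above 10 with the replicate mean above 10; inconclusive = replicate mean below 10 yet half the replicates above 10; inactive = over half of replicates below 10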;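 note: wells of about 30 µL received 50 nL stock; many hits fall short of the cut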
Beta cell apopt = inhibitors of cytokine-induced beta cell apoptosis, primary screen, luminescence. INS-1E cytokine-induced death, ATP luminescence, 48 h; percent of positive-control rescue, neutral wells zero. protection from apoptosis, % (concentration not given with the values). 300,000 tested, 0.8% active;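 active = all replicates at 75% or more, or half of them and the mean; inconclusive = half reach 75% but not the mean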;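 note: 0% = cytokine-treated negative control wells and 100% = positive control rescue; higher means more ATP so stronger rescue from cytokine killing; wells of about 40 µL received 100 nL stock; the first replicate is given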
UCH37 inh = inhibitors of human UCH37 deubiquitinase, primary screen, biochemical, Ub-AMC cleavage, fluorescence; inhibition, % (concentration not given with the values); 330,000 tested, 0.33% active; purified proteasome/UCH37; Ubiquitin carboxyl-terminal hydrolase isozyme L5 (Homo sapiens), Q9Y5K5; AID 588478, 2011;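 active = mean of two replicates above 20%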;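 note: 0% = compound-free wells with enzyme and 100% = wells lacking proteasome; stock transfer was 100 nL into about 20 µL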
Target sequence (Q9Y5K5 whole entry, looked up): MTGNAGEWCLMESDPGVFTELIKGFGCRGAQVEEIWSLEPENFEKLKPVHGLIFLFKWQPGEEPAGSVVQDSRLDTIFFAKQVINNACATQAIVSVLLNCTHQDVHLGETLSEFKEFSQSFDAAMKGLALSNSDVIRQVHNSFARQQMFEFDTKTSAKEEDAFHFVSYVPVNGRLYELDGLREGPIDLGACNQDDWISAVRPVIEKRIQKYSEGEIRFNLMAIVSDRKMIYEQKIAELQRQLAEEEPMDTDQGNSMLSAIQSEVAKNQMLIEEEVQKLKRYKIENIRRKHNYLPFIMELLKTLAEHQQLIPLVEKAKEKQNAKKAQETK
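Test system – human UCH37 enzyme supplied as purified proteasome complex · Incubation – 30 min preincubation with enzyme, 25 min cleavage at room temperature · Detection – AMC fluorescence from Ub-AMC cleavage, excitation 355 nm, emission 460 nm · Benchmarks – no-proteasome wells (full inhibition) and compound-free wells (no inhibition)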
E coli growth = E. coli growth inhibition, primary screen, OD600. OD600 absorbance (concentration not given with the values). 330,000 tested, 0.21% active. Escherichia coli growth, 23 h; stronger effect = lower value;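 active = OD600 absorbance below the run mean of sample wells minus 3.6 SD, in any replicate, cut at about 0.56 in these data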;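 note: stock transfer was 300 nL into about 60 µL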
Ecoli rRNA inh OD600 = also measured in Ecoli rRNA inh; calls as there; OD600 change, %; measured here: OD600 growth;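 optical density of the mix in the first replicate; 0 = DMSO median and -100 = no signal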
Ecoli rRNA inh RFP = further read-out of Ecoli rRNA inh, marked with its call; RFP signal change, %; measured here: RFP humanized mutant strains;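 first replicate; 0 = DMSO median and -100 = no signal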
Numbers without * were called inactive; i = inactive; ? = inconclusive; · = no result given. Not all compounds are listed (hit frequency here may not be typical).

SMILES	Ecoli rRNA inh	Ecoli rRNA inh OD600	Ecoli rRNA inh RFP	FGF22 binding	AF4-AF9 inh	T cruzi inh	Bfl-1 A1 inh	Beta cell apopt	UCH37 inh	E coli growth
CC(C)=CCN1CCN(CC#Cc2ccccc2)CC1CCO (centres undefined)	13	10	2.3	i	2.6	-1	0.4	-10	1.7	0.66
Cc1ccccc1C(=O)Nc1ccc(N2CCN(C(=O)c3ccco3)CC2)cc1	1	10	-0.1	i	2.6	-10	0.0	3	2.0	0.68
O=C(O)CC(c1cccc(C(F)(F)F)c1)N1CCS(=O)(=O)CC1 (centres undefined)	8	10	3.3	i	-6.8	-3	1.0	·	2.4	0.68
COc1ccccc1N1CCN(/N=C/c2ccc([N+](=O)[O-])cc2)CC1	7	6	-1.6	i	0.8	1	0.4	-4	·	·
CN(c1ccccc1)S(=O)(=O)c1cccc(NC(=O)CCN2C(=O)C3CCCCC3C2=O)c1 (centres undefined)	-29*	-7.0*	0.1*	i	-9.8	8	0.8	-6	1.1	0.71
Cc1ccccc1N(C(=O)c1csnn1)C(C(=O)NC1CCCC1)c1ccncc1 (centres undefined)	4	2	-0.9	i	0.9	0	0.8	1	1.1	0.68
CCCn1nc(C(=O)N2CCc3ccccc32)c2ccccc2c1=O	·	·	·	i	0.4	·	-0.6	-7	1.5	0.69
COC(=O)CNc1c(-c2ccccn2)nc2ccc(Br)cn12	·	·	·	·	·	-5	-7.0	·	2.8	0.71
COc1ccccc1NS(=O)(=O)c1cc(NC(=O)C2CC2)ccc1N1CCOCC1	·	·	·	·	·	5	-0.3	16	2.2	0.66
COc1ccc(OC)c(C2CC(=O)Nc3cc(OC)c(OC)c(OC)c32)c1 (centres undefined)	·	·	·	·	·	-15	0.0	-10	1.9	0.71
CN(c1ccccc1)S(=O)(=O)c1cccc(C(=O)N2CCCCCC2)c1	-8	-11	0.8	i	-5.8	·	·	·	3.4	0.72
CCCC(=O)Nc1c2c(nn1-c1cccc(Cl)c1)CS(=O)(=O)C2	10	3	1.1	i	-1.4	6	0.7	0	5.0	0.7
Cc1cc(C(=O)NCCc2ccc(S(N)(=O)=O)cc2)no1	9	13	-0.6	i	-2.3	-17	-0.2	-7	1.7	0.67
Cn1ccsc1=NC(=O)c1cccc(OC(F)F)c1	2	-5	-1.4	i	-2.2	2	-3.4	1	5.0	0.66
CCC1Oc2ccccc2N(CC(=O)Nc2ccccc2OC)C1=O (centres undefined)	·	·	·	·	·	-20	0.5	-5	2.7	0.66
COc1ccc(F)cc1S(=O)(=O)NC1CC(C)(C)NC(C)(C)C1	·	·	·	·	·	-13	-0.3	2	2.5	0.67
CCCc1c(C(=O)Nc2ccc(F)cc2)cnn1-c1ccccc1	-2	4	-2.8	i	-0.1	-14	0.4	2	2.5	0.65
Cc1cc(NC(=O)C2CCN(S(=O)(=O)c3cccs3)CC2)no1	·	·	·	·	·	-7	-1.4	1	1.9	0.73
CC(C)(C)OC(=O)N1CCC(C(=O)N[C@@H](Cc2ccccc2)C(=O)O)CC1	·	·	·	·	·	-2	0.5	-8	4.3	·
Cc1ccc(C(=O)COC(=O)CCN2C(=O)C3C4CCC(C4)C3C2=O)cc1C (centres undefined)	-3	3	3.0	i	-1.2	4	0.6	-2	1.6	0.7
CCOC(=O)c1cnn(-c2cc(C(C)(C)C)nc3c(-c4ccccc4)c(C)nn23)c1N	·	·	·	·	·	7	-0.7	6	-2.7	0.68
CCOC(=O)C1=C(c2ccccc2)NC(=O)NC1c1ccc(OC)cc1OC (centres undefined)	12	10	1.0	i	1.4	-7	-0.8	-6	3.0	0.69
CSCCNC(=O)Nc1c(-c2c(Cl)cccc2Cl)noc1C	7	3	-1.4	i	3.4	4	1.4	-1	5.2	0.67
Cc1nn(C)c(=O)c(N)c1-c1cc(-c2ccc(Cl)c(Cl)c2)n[nH]1	12	8	4.3	i	0.9	1	-0.3	17	3.0	0.69
C[C@@]12C(=O)Nc3cc(Cl)ccc3C(=O)N1[C@H]1c3cc(Cl)ccc3OC[C@@H]1[C@@H]2c1ccccc1	12	0	-1.8	i	-1.5	·	0.3	-3	0.2	·
COc1cccc(-c2cc(C(=O)NCCCn3ccnc3)no2)c1	·	·	·	·	·	7	-0.4	0	1.6	0.69
Cc1ccc(S(=O)(=O)c2cc(O)ccc2O)cc1C	-6	-1	2.4	i	-1.2	2	-0.7	-3	2.0	0.7
CCn1c(SCC(=O)Nc2ccc(OC)cc2)nc2nc3c(cc2c1=O)CCCC3	-28*	-5.1*	-3.7*	i	-3.2	1	0.4	146*	0.9	0.63
O=C(NCCc1ccccc1)c1ccc(Cl)cc1[N+](=O)[O-]	-3	-7	-1.8	i	1.9	3	0.7	-5	6.4	0.67
Cn1ncc(Cl)c1C(=O)N/N=C/c1cc2c(cc1[N+](=O)[O-])OCO2	-4	0	-2.8	i	-1.6	-19	1.1	-2	·	·
O=C1CCCN1c1ccc(S(=O)(=O)Nc2ccc3c(c2)OCCO3)cc1	·	·	·	·	·	-10	-0.4	20	0.8	0.65
O=C(Nc1ccc(NC(=O)c2ccco2)nc1)c1cccc(F)c1	10	11	-0.7	i	5.6	-2	-3.7	0	-7.1	0.67
CCOC(=O)c1ccccc1NS(=O)(=O)c1c(C)nc2sccn2c1=O	-10	-19	5.9	i	-0.1	-9	-0.1	2	7.0	0.72
CCC1CSC(Nc2ccc(C(=O)/C=C/c3cccc(C)c3)cc2)=N1 (centres undefined)	-28	-53	22	i	2.6	60*	0.5	12	-0.5	0.7
O=C(NCC1(c2ccccc2)CCOCC1)c1ccc(Br)o1	·	·	·	·	·	-7	-0.2	-14	1.6	0.71
CC(C)N(Cc1nccn1C)C(=O)c1cc(COc2ccc3ncccc3c2)on1	-9	-2	-4.5	i	0.4	-11	-0.4	4	4.8	0.67
CCOC(=O)CN(C(=O)c1snc(C(N)=O)c1N)C(C(=O)NC1CCCCC1)c1ccc(F)cc1 (centres undefined)	7	-1	-2.9	i	-2.4	1	0.4	-5	-28	0.64
CCC(C)N=Cc1c(NCc2ccco2)nc2c(C)cccn2c1=O (centres undefined)	·	·	·	·	·	5	0.3	-11	-2.7	0.73
CC(=O)Nc1ccc(S(=O)(=O)NCC(=O)OCC(=O)NC(=O)C2CCCCC2)cc1	·	·	·	·	·	1	0.1	6	0.3	0.74
CCCCn1c(N)c(N(CCC(C)C)C(=O)c2oc3ccc(OCC)cc3c2C)c(=O)[nH]c1=O	0	2	-3.7	i	-3.3	6	-0.1	-6	-2.5	0.7
Cc1ccc(S(=O)(=O)NC(C(=O)O)c2ccccc2)cc1 (centres undefined)	14	8	2.7	i	0.1	-1	-2.0	1	-1.3	0.69
Cc1ccc(S(=O)(=O)N2CCOCC2)cc1C(=O)N1CC(C)CC(C)C1 (centres undefined)	2	-1	-8.4	i	-2.0	·	1.9	-2	-1.3	0.68
Cc1ccc(NC(=O)CC2C(=O)N(Cc3ccccc3)C(=S)N2NC(=O)c2cccc(F)c2)c(C)c1 (centres undefined)	·	·	·	·	·	-8	0.7	17	-2.2	0.68
COc1cccc(N(C(=O)c2snc(C(N)=O)c2N)C(C(=O)NCC2CCCO2)c2ccc(C)o2)c1 (centres undefined)	-2	-3	0.5	i	1.4	-6	0.4	2	-66	0.7
Cc1cc(C)c(O)c(NC(=S)NC(=O)Cc2ccccc2)c1	-33	-43	-16	i	-5.2	-19	0.5	0	-0.2	0.66
O=C(COC(=O)c1ccco1)NCc1ccco1	·	·	·	·	·	-15	-0.3	-7	4.7	0.73
CN(C)S(=O)(=O)c1cccc(NC(=O)COC(=O)/C=C/c2cccs2)c1	-25	-29	-3.7	·	5.7	-18	0.2	-5	4.5	0.72
CCCCNC(=O)c1nn(-c2ccccc2OC)c(=O)c2ccccc12	·	·	·	·	·	13	-0.2	·	1.9	0.72
O=C(NCC(=O)N1CC=C(c2ccccc2)CC1)c1ccccc1Br	-9	-4	1.0	i	-1.9	0	-0.2	0	3.1	0.7
O=C(NCC1CCCO1)c1ccc(Br)c(S(=O)(=O)N2CCOCC2)c1 (centres undefined)	·	·	·	i	1.2	·	0.6	0	5.3	0.71
Cc1ccc(-c2nnc(SCC(=O)N3c4ccccc4NC(=O)C3(C)C)n2N)cc1	·	·	·	·	·	9	0.3	1	1.3	0.72
O=C(Nc1ccc(Cc2ccncc2)cc1)c1ccc([N+](=O)[O-])o1	-13	0	-1.4	i	8.2	31	0.6	?	5.5	0.58
CC(C)C1C(C#N)=C(N)SC(N)=C1C#N	·	·	·	·	·	-24	-0.3	4	3.0	0.7
COc1ccc(C(=O)Nc2cc(C(=O)O)cc(C(=O)O)c2)cc1Cl	11	11	-6.1	·	0.3	-3	1.0	0	5.0	0.69
CCOC(=O)c1cc(C(=O)Nc2cccc(C)c2)nn1C	·	·	·	·	·	-14	-12	4	0.2	0.65
CCOC(=O)Cn1c(=NC(=O)c2nc3ccccc3s2)sc2cc(S(N)(=O)=O)ccc21	·	·	·	·	·	2	0.2	16	-163	0.69
O=C(Oc1ccc(N2C(=O)CCC2=O)cc1)c1ccco1	·	·	·	·	·	-7	-0.7	-10	0.0	0.64
CCn1c(SCC(=O)N2CCc3ccccc32)nnc1-c1ccco1	·	·	·	·	·	-20	-0.4	-4	4.6	0.68

Copied from the results shown for reference:
SMILES	Ecoli rRNA inh	Ecoli rRNA inh OD600	Ecoli rRNA inh RFP	FGF22 binding	AF4-AF9 inh	T cruzi inh	Bfl-1 A1 inh	Beta cell apopt	UCH37 inh	E coli growth
CCC(C)N=Cc1c(NCc2ccco2)nc2c(C)cccn2c1=O (centres undefined)	·	·	·	·	·	5	0.3	-11	-2.7	0.73
CC(=O)Nc1ccc(S(=O)(=O)NCC(=O)OCC(=O)NC(=O)C2CCCCC2)cc1	·	·	·	·	·	1	0.1	6	0.3	0.74
CCCCn1c(N)c(N(CCC(C)C)C(=O)c2oc3ccc(OCC)cc3c2C)c(=O)[nH]c1=O	0	2	-3.7	i	-3.3	6	-0.1	-6	-2.5	0.7
Cc1ccc(S(=O)(=O)NC(C(=O)O)c2ccccc2)cc1 (centres undefined)	14	8	2.7	i	0.1	-1	-2.0	1	-1.3	0.69
Cc1ccc(S(=O)(=O)N2CCOCC2)cc1C(=O)N1CC(C)CC(C)C1 (centres undefined)	2	-1	-8.4	i	-2.0	·	1.9	-2	-1.3	0.68

Screening results from PubChem BioAssay.
